Assay outcomes (PubChem)
miR-21 FLuc: qHTS Assay for Modulators of miRNAs and/orActivators of miR-21. 340,000 tested, under 10 active. AID 2288, 2010. Potency, µM (highest dose often 38.3 µM), for the others: at the top dose reporter change, positive = more light. HeLa miR-21 FLuc reporter, luciferase, 48 h; active = well fitted rising curve with a large enough effect; inconclusive = small, poorly fitted or top-dose-only effect; inactive = no such curve, though single readings can be large or run the other way;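 further: % of control where 0% means no effect; miR-21 action dims this reporter so a rising signal means less miR-21 action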
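Compounds were titrated across several concentrations (up to approximately 40 uM) and incubated 48 hours with HeLa miR-21-FLuc reporter cells (miR-21 target sequence downstream of FLuc, endogenous miR-21). Readout was firefly luciferase luminescence after lytic detection reagent.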
Rango dissoc inh: qHTS Assay for Inhibitors of RanGTP induced Rango (Ran-regulated importin-beta cargo) - Importin beta complex dissociation. Snurportin-1 (Homo sapiens) + GTP-binding nuclear protein Ran (Homo sapiens) + Importin …. Biochemical FRET Rango-importin beta, RanGTP-induced dissociation. Potency, µM (titrated, usually from 46.1 µM), without a hit: top-dose activity change, negative = inhibition. 340,000 tested, 0.071% active. AID 540253, 2011; active means falling FRET ratio curve, often poorly fitted, with flat reads before Ran was added; inconclusive means other falling curves, or compound fluorescence or quenching; inactive means flat or rising ratio curve;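 further: potency means the concentration at half of the fitted maximal effect; % of control where 0% means no effect; nearly all actives have a fitted effect of over 45% in size; -100% = wells without RanGTP and RCC1; the record marks most hits as doubtful in a second field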
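Two FRET readings bracket the reaction: one 5 min after compound meets Rango–importin beta, another 45 min after RanGTP-RCC1 (0.6 uM Ran, 0.2 uM RCC1, 2 mM GTP) is added. Only the second defines inhibition.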
GLA inh pH 4.5: qHTS Assay for Inhibitors of Human alpha-Galactosidase at pH 4.5; purified enzyme, 4-MU-alpha-Gal fluorescence, pH 4.5; Alpha-galactosidase A (Homo sapiens), P06280; 230,000 tested, under 10 active; activity change, negative = inhibition, % at 105 µM; inconclusive = small, poorly fitted or top-dose-only inhibition, or a rising curve; inactive = flat fitted curve, though single readings scatter; no compound was filed as active;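 further: 0% = full activity with enzyme and -100% = basal without enzyme; dose as in the result columns while the protocol names 77 µM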
Target sequence (P06280 whole entry, looked up): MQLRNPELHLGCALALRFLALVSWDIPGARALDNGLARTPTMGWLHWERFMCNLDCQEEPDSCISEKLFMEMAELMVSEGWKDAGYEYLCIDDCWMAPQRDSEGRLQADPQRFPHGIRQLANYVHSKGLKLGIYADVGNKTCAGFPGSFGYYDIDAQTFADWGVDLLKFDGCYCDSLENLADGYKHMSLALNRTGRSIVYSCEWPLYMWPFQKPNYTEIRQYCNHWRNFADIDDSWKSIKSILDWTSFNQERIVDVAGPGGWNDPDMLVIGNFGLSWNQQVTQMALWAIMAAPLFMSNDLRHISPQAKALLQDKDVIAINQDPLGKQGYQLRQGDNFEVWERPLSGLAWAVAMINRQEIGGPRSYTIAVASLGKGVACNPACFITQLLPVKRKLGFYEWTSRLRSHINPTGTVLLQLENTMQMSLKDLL
Rango-impB inh: qHTS Assay for Inhibitors of Rango (Ran-regulated importin-beta cargo) - Importin beta complex formation; Rango CFP/YFP FRET sensor + importin beta, 45 min; Potency, µM (highest dose often 92.2 µM), inactives show at the highest dose inhibition of complex formation; 340,000 tested, 0.031% active; AID 540263, 2011; active = rising FRET ratio curve, often small or poorly fitted; inconclusive = mostly compound fluorescence or quenching in the first reads; inactive = flat curves in all reads;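 further: potency means the concentration at half of the fitted maximal effect; 0% = DMSO wells and 100% = buffer wells lacking importin beta; nearly all actives have a fitted effect of over 15% in size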
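FRET biosensor Rango (snurportin 1 IBB between N-terminal EYFP and C-terminal Cerulean), 50 nM in PBS/1 mM DTT/0.02% Tween-20/0.1% BSA, preincubated 5 min RT with compound; 0.125 microM importin beta added, 45 min RT, CFP/YFP FRET ratio read.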
* hit, by the source's call; ? = inconclusive; . = no result given. Not all compounds are listed. The share of hits here may be higher or lower than overall.

miR-21 FLuc | Rango dissoc inh | GLA inh pH 4.5 | Rango-impB inh | SMILES
-27.2% | 28.9% | . | 6.0% | Cc1ccc(Nc2nc(N)c3ccccc3n2)cc1Cl
0.1% | -3.1% | -1.3 | -2.1% | COc1cccc(C(=O)NCC(=O)N/N=C/c2cccs2)c1
. | -5.1% | . | -0.3% | Cc1nc2ccc(Cl)cc2[nH]1
. | -14.1% | . | -1.2% | CC12CCC(=O)N1C(C(=O)NCCc1ccc(F)cc1)CS2 (configuration not stated)
. | -28.8% | . | 0.6% | CC(=O)c1cccc(NC(=O)CSc2nc3ccccc3c(=O)n2CCCN2CCOCC2)c1
. | 3.3% | . | 1.0% | CC(=O)Nc1c(Cl)cnn(-c2ccccc2)c1=O
-49.4% | -6.1% | 0.4 | -1.7% | O=C1OC(c2ccccc2)=C/C1=C/N1CCCCC1
-2.4% | -27.5% | . | ? | Nc1nonc1C(=O)N/N=C/c1cc2c(cc1Br)OCO2
10.2% | 0.0% | . | -2.0% | Cc1ncc([N+](=O)[O-])n1CC(=O)Nc1ccc(OC(F)(F)Cl)cc1
-1.5% | ? | -8.4 | ? | CSc1ccc(/C=C(/Sc2nnc(-c3ccccc3)o2)C(=O)O)cc1
-4.1% | -11.3% | 2.5 | -1.8% | COc1ccccc1CNC(=O)C(C)Sc1ccc(C)cc1 (configuration not stated)
-4.0% | -3.2% | 7.3 | -1.3% | Cc1nn(C)c(C(=O)NNC(=S)NCC(C)C)c1Cl
-2.8% | 4.3% | 10.3 | -0.4% | CN(C(=O)COC(=O)CCc1c[nH]c2ccccc12)C(c1ccccc1)c1ccccc1
-1.7% | -4.8% | . | 2.0% | COc1cc(C2C(C#N)=C(N)N(N(C)C)C3=C2C(=O)CC(C)(C)C3)ccc1O (configuration not stated)
-5.9% | 3.4% | -6.5 | 0.5% | CCOC(=O)/C(=N\Nc1cc(Cl)ccc1Cl)N1CCN(CC)CC1
-2.7% | 14.3% | 4.6 | -1.3% | Cc1cc(C)nc(SC(C)C(=O)Nc2ccc(S(N)(=O)=O)cc2)n1 (configuration not stated)
-2.0% | -5.3% | 3.2 | 3.2% | Cc1cc(NC(=O)c2cc(-c3ccccc3C)nc3ccccc23)no1
. | 10.5% | . | -0.4% | COc1cccc(C(=O)NCC(c2ccco2)N2CCOCC2)c1 (configuration not stated)
-3.8% | 14.7% | . | -0.2% | O=C(CSc1nnc(NC(=O)C2CC2)s1)Nc1ccccc1Cl
-0.2% | -0.1% | . | -0.3% | CCN(CC)CCCn1c(SCC(=O)Nc2cccc(F)c2)nnc1-c1ccoc1C
0.1% | 3.2% | . | ? | COc1cc(OC)cc(C(=O)NNC(=O)CCC(=O)c2cccs2)c1
-1.8% | -5.5% | 8.0 | 2.8% | CNC(=O)COc1ccc(-c2nn(C)c(=O)c3ccccc23)cc1
-2.9% | 22.0% | -2.2 | -0.5% | O=C(Cc1cccs1)N1CCCC(c2nc3c(nnn3Cc3ccccc3Cl)c(=O)[nH]2)C1 (configuration not stated)
. | 7.1% | . | -3.3% | COC(=O)[C@H](Cc1ccccc1)NC(=O)Cn1cnc2c(NCc3ccccc3)ncnc21

Copied from the listing, four compounds:
miR-21 FLuc | Rango dissoc inh | GLA inh pH 4.5 | Rango-impB inh | SMILES
0.1% | 3.2% | . | ? | COc1cc(OC)cc(C(=O)NNC(=O)CCC(=O)c2cccs2)c1
-1.8% | -5.5% | 8.0 | 2.8% | CNC(=O)COc1ccc(-c2nn(C)c(=O)c3ccccc23)cc1
-2.9% | 22.0% | -2.2 | -0.5% | O=C(Cc1cccs1)N1CCCC(c2nc3c(nnn3Cc3ccccc3Cl)c(=O)[nH]2)C1 (configuration not stated)
. | 7.1% | . | -3.3% | COC(=O)[C@H](Cc1ccccc1)NC(=O)Cn1cnc2c(NCc3ccccc3)ncnc21

(continued)
miR-21 FLuc | Rango dissoc inh | GLA inh pH 4.5 | Rango-impB inh | SMILES
-10.3% | -4.0% | . | 0.8% | CCCCc1cc(=O)oc2cc(C)cc(OC(C)C(=O)NCc3ccncc3)c12 (configuration not stated)
-1.4% | -18.6% | -3.4 | -1.0% | COc1cc([N+](=O)[O-])ccc1NC(=O)CCCOc1cc(C)ccc1C
-0.5% | -1.2% | 4.2 | -0.6% | CCCCCn1c(CN2CCN(C)CC2)nc2c1c(=O)n(C)c(=O)n2C
3.6% | 6.9% | . | -0.8% | COc1cccc(CN(C)C(=O)c2ccc(Oc3ccccc3)cc2)c1OC
0.1% | 15.4% | . | 5.9% | O=C(O)c1ccc(N2C(=O)CC(N3CCN(c4ccc(Cl)cc4)CC3)C2=O)cc1 (configuration not stated)
0.2% | 18.9% | -3.8 | 2.2% | CCOc1cccc(C2C(C#N)=C(N)Oc3cc(C)[nH]c(=O)c32)c1OCC (configuration not stated)
2.2% | 0.4% | 3.5 | 1.9% | COc1cccc(NC(=O)Nc2ccc3c(c2)nc(C)n3C)c1
-5.4% | 8.4% | 1.7 | -2.3% | COc1ccc(C)cc1S(=O)(=O)N(C)CC(=O)N1CCC(C)CC1
-10.1% | 11.1% | -1.8 | -2.7% | COCCOCC(O)CN1CCN(c2ccc(C)cc2)CC1 (configuration not stated)
-15.6% | -10.9% | 5.2 | 0.5% | COc1ccc(S(=O)(=O)N(C)CC(=O)N2CCCC2)cc1Cl
-32.4% | 12.5% | 8.2 | -2.1% | COC(=O)c1ccc(NS(=O)(=O)c2ccc(SC)cc2)cc1
. | -22.9% | . | 1.0% | O=C(CSc1nnc(NC2CC2)s1)Nc1ccc(N2CCOCC2)cc1
-18.9% | -7.1% | . | -0.3% | Cc1ccc([N+](=O)[O-])cc1N=Cc1ccc(Br)s1
-9.3% | 9.8% | -0.9 | -3.1% | CC1CCN(CCCNC(=O)c2ccc(CS(=O)(=O)Cc3ccccc3F)o2)CC1
0.5% | -1.3% | -0.5 | -2.1% | COc1ccccc1C1(CC(=O)O)CCOC(C(C)C)C1 (configuration not stated)
-4.8% | ? | -0.8 | ? | COc1ccccc1NC(=O)Nc1sccc1-c1nc2ccccc2s1
-4.5% | 1.5% | -10.5 | 5.0% | Cc1cc(C(F)(F)F)nn1Cc1ccc(C(=O)NCc2ccco2)o1
0.0% | ? | 0.2 | -0.3% | COc1ccc(/C=C2\CCCC3C2=NN(C(=O)c2scnc2C)C3c2ccc(OC)c(OC)c2)cc1OC (configuration not stated)
. | -4.9% | . | 1.1% | COc1ccc(C(CNC(=O)c2ccco2)N2CCCC2)cc1 (configuration not stated)
4.5% | -0.8% | . | -2.3% | CC(NC(=O)CCn1ccc2cc(S(=O)(=O)N3CCCC3)ccc21)c1ccccc1 (configuration not stated)
-52.1% | -10.3% | -2.3 | 3.4% | Cc1ccc2sc(-c3ccc(NC(=O)c4cc(-n5cnnc5)ccc4Cl)cc3)nc2c1
. | -1.1% | . | -0.1% | COc1ccc(CC(=O)OC(C)C(=O)NC2CCCCC2C)cc1 (configuration not stated)
4.7% | -13.4% | . | 2.6% | Cc1ccc(CCNS(=O)(=O)c2cc3c(cc2C)n(C)c(=O)c(=O)n3C)cc1
0.5% | 12.6% | 9.2 | 2.6% | C=CCn1c(CSCc2ccc(Cl)cc2)nnc1SCC(=O)NCc1ccccc1
. | 4.6% | . | 2.4% | CC(C)CC1NC(=O)N(CC(=O)Nc2ccc(-c3ccccc3)cc2)C1=O (configuration not stated)
-20.0% | 5.6% | -1.8 | 2.5% | Cc1cc(Nc2cccc(F)c2)n2ncnc2n1
0.8% | 6.1% | . | 5.9% | O=C(CSc1nnc(CNC(=O)c2ccc(F)cc2)o1)NCCc1ccccc1
. | ? | 1.1 | ? | COc1ccc(C2=CC3=C(Br)C(=O)C(C)(OC(=O)c4cccs4)C(=O)C3=CO2)cc1 (configuration not stated)
6.3% | -16.0% | 2.0 | -5.2% | O=C(/C=C/c1ccc([N+](=O)[O-])cc1)NCCc1ccc(F)cc1
-38.3% | 1.0% | . | -2.2% | CC(=O)n1cc(/C=N/NC(=O)c2ccccc2O)c2ccccc21
-4.8% | -13.7% | -0.1 | 2.6% | CCOc1cc(C(=O)N(C)Cc2cc3cc(OC)ccc3[nH]c2=O)cc(OCC)c1OCC
0.1% | 14.7% | -5.3 | 5.0% | CCO[C@@H]1OC(C(=O)N2CCCCCCC2)=C[C@H](c2csc3ccccc23)[C@H]1CCCO
-1.0% | 9.4% | -1.4 | 0.1% | CCS(=O)(=O)N1CCCC(C(=O)NCc2cccnc2)C1 (configuration not stated)
-9.3% | 23.7% | 0.5 | 0.0% | CCc1nnc(NC(=O)c2c(O)c3c([nH]c2=O)CCCC3)s1
12.1% | -18.1% | -3.1 | -2.7% | O=C(NCCc1cccs1)C1CC(c2cccc(F)c2)=NO1 (configuration not stated)
. | -1.1% | . | -1.3% | CCN(CC(=O)Nc1ccc(NC(C)=O)cc1)C(=O)c1oc2ccccc2c1C
11.7% | 34.0% | 0.8 | 5.9% | CC(C)N(CC(=O)Nc1ccc(Cl)cc1C(F)(F)F)C(=O)CCl
-3.6% | -4.2% | -5.8 | -3.7% | O=C1CC(C(=O)N(c2cccc(F)c2)C(C(=O)NC2CCCC2)c2ccccn2)CS1 (configuration not stated)
-6.5% | 1.1% | -4.6 | 3.9% | O=C(O)C1CCN(S(=O)(=O)c2ccc(Oc3ccccc3)cc2)CC1
-2.7% | -7.2% | 3.3 | -0.8% | CCOc1ccc(NS(=O)(=O)c2cc(OCC(N)=O)c(C)cc2Cl)cc1

Laid out differently: results already given
canonical_smiles	miR-21 FLuc	Rango dissoc inh	GLA inh pH 4.5	Rango-impB inh
CCc1nnc(NC(=O)c2c(O)c3c([nH]c2=O)CCCC3)s1	-9.3%	23.7%	0.5	0.0%
O=C(O)C1CCN(S(=O)(=O)c2ccc(Oc3ccccc3)cc2)CC1	-6.5%	1.1%	-4.6	3.9%
CC(C)N(CC(=O)Nc1ccc(Cl)cc1C(F)(F)F)C(=O)CCl	11.7%	34.0%	0.8	5.9%

(list continues)
miR-21 FLuc | Rango dissoc inh | GLA inh pH 4.5 | Rango-impB inh | SMILES
1.1% | -7.8% | . | -3.7% | Cc1cccc(OCCn2ccnc2)c1C
9.7% | 0.8% | -8.4 | -0.2% | Cc1ccc(F)cc1NC(=O)N1CCN(c2ccnc3cc(Cl)ccc23)CC1
. | -13.0% | . | -6.3% | CCC1CCc2sc(C(=O)NNC(=S)NCC3CCCO3)cc2C1 (configuration not stated)
-5.3% | 0.6% | 3.2 | -9.4% | CC1CN(C(=O)c2ccccc2)C(=Nc2cccc(S(=O)(=O)N(C)C)c2)S1 (configuration not stated)
-5.5% | -6.9% | . | 0.3% | CCOC(=O)CNC(=O)CSc1nc(Cc2ccccc2)nc2ccccc12
2.9% | 13.4% | -4.0 | 0.2% | C=C(C)[C@@H]1CC[C@]2(C(=O)O)CC[C@]3(C)[C@H](CC[C@@H]4[C@@]5(C)CC[C@H](O)C(C)(C)[C@@H]5CC[C@]43C)[C@@H]12
. | -18.4% | . | 0.8% | CCN(CC)CCn1c2c(c(SCC(=O)NCc3ccccc3)nc1=O)CCC2
-3.1% | -12.3% | . | -0.8% | Cc1cc(=O)oc2cc(O[C@@H]3O[C@H](CO)[C@H](O)[C@H](O)[C@H]3O)ccc12
13.0% | -1.4% | -13.9 | -0.8% | Cc1cc(C)c(NC(=O)c2ccc(CNS(=O)(=O)c3cc(C(F)(F)F)ccc3Cl)cc2)c(C)c1
-1.4% | -8.8% | -4.6 | -1.9% | Cc1ccc(S(=O)(=O)NCC(=O)N(CC(=O)NCc2ccco2)Cc2ccco2)cc1
-2.8% | -0.6% | ? | -7.5% | Cc1cc(NCCN2CCOCC2)n2c(nc3ccccc32)c1C#N
. | -5.9% | . | -1.4% | CC(=O)Nc1ccc(NC(=O)c2ccccc2-n2cnnn2)cc1
1.8% | -16.4% | 0.5 | -0.4% | c1ccc2c(c1)COC(CN1CCCCC1)OC2
